Screens: PubChem, Johns Hopkins Ion Channel Center
KCNQ2 block = KCNQ2 potassium channel inhibitors, primary screen, cell-based, CHO-K1, FluxOR thallium flux, B-score (AID 2156); O88943; 20 min; hits give low values; only compounds with negative scores are shown here; some inactives read as strong as hits; B-score at 10 µM; actives 1.1% (n = 310,000);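 active means fluorescence ratio B-score at most minus 3 library SDs, with starting brightness B-score within 2 library SDs, cut at about -5.5 in these data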
Target sequence (O88943 whole entry, looked up): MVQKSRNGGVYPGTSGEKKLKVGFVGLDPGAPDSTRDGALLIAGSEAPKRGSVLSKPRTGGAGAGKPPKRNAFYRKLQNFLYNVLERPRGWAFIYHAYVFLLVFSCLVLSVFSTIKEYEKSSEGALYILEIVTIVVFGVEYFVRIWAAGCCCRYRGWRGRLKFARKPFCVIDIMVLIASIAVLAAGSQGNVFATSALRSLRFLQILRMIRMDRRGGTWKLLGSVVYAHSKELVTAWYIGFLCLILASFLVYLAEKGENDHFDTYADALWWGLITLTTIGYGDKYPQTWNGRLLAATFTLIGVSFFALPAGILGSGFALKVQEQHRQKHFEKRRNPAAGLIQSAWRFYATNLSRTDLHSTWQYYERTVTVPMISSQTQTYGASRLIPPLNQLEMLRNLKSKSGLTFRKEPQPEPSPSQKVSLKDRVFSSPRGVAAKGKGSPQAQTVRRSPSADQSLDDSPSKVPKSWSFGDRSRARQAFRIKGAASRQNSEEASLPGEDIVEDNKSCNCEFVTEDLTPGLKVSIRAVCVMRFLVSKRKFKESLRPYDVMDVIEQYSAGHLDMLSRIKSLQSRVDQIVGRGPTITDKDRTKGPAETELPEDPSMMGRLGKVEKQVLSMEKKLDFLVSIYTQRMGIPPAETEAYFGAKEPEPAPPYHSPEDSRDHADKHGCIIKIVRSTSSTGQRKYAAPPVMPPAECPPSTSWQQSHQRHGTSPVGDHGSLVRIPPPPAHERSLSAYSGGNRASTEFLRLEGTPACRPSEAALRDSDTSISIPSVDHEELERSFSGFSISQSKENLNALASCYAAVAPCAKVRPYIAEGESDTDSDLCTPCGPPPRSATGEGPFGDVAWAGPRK
KCNQ2 block baseline = further read-out of KCNQ2 block, marked with its call; B-score; measured here: initial fluorescence intensity artifact check;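 brightness before thallium and not channel activity; 0 = typical well and far values either way flag optical interference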
Numbers without * were called inactive; i = inactive; & = joins results of further samples. A portion of the library, so the mix of outcomes need not match the whole.

The opening 2 compounds, to show the layout:
KCNQ2 block	KCNQ2 block baseline	molecule
i	0.29	Cc1cc(NC(=O)Cc2cccs2)nn1CC(=O)NCc1ccco1
i	0.28	CCCCCN(C(=O)CCC(=O)OCc1cc(C(C)=O)ccc1OC)c1c(N)n(CCCC)c(=O)[nH]c1=O

The listing, previewed entries included:
KCNQ2 block	KCNQ2 block baseline	molecule
i	0.29	Cc1cc(NC(=O)Cc2cccs2)nn1CC(=O)NCc1ccco1
i	0.28	CCCCCN(C(=O)CCC(=O)OCc1cc(C(C)=O)ccc1OC)c1c(N)n(CCCC)c(=O)[nH]c1=O
i	0.02	COc1cc(NC(=O)CCN2CCN(CCO)CC2)cc(OC)c1
i	0.08	CCOC(=O)c1sc(NC(=O)CSc2nccc(C)n2)c(C#N)c1C
i	-1.13	COC(=O)c1cc(CN2CCN(c3ccccc3C)CC2)ccc1O
i	-1.68	CN(Cc1ccccc1)C(=O)CCn1c(=O)c2cccn2c2cccnc21
i	-0.05	CCn1c(SCC(=O)c2ccccc2)nc2c(c1=O)SC(C)C2 (configuration not stated)
i	0.06	CC1CCN(c2ccccc2NC(=O)c2ccc(C#N)cc2F)CC1
i	1.2	Cc1cc(Cl)ccc1OC(C)C(=O)NN=C1CCCCCC1 (configuration not stated)
i	0.11	CCc1ccc2nc(N(CCN(C)C)C(=O)c3ccc4ccccc4c3)sc2c1
i	-1.53	Cc1nc2ccccn2c1C(=O)N/N=C/c1cc(C)n(-c2ccc(Cl)cc2)c1C
i	1.63	O=C(NCCc1cnc[nH]1)Nc1cccc(C(F)(F)F)c1
i	1.36	Cc1nn(C)cc1/C=N\NC(=O)c1ccc2c(c1)c(C)c(C)n2Cc1ccccc1
i	0.42	O=[n+]1cc(-c2ccc(Cl)cc2)n([O-])c2c1CCCCC2
i	-1.76	Cc1c(C#N)c(NC(=O)c2ccccc2)n(Cc2ccccc2)c1C
i	3.87	c1ccc(-c2cc3nccc(-c4ccccn4)n3n2)cc1
i	1.37	COCCCNc1nc(SCc2ccccc2)nc2sc3c(c12)CCC3
i	-0.45	Fc1ccc(N2CCN(Cc3cnc(N4CCOCC4)s3)CC2)cc1
i	-0.53	CCOC(=O)c1cn(-c2nc(-c3ccc(Cl)c(Cl)c3)cs2)c2c(F)c(N3CCOCC3)c(F)cc2c1=O
i	3.12	CCOC(=O)c1sc2c(c1C)C(c1cccs1)C1=C(CCCC1=O)N2 (configuration not stated)
i	-1.97	Cc1ccc(C)c(C(=O)CN2C(=O)c3ccccc3C2=O)c1
i	-2.17	C/C(=N\NC(=O)CSc1nc2ccccc2o1)c1ccc(O)cc1
i	-0.92	CC(=O)NCC1(O)CCCC(C)C1 (configuration not stated)
i	-1.05	CCCC1(c2ccccc2)NC(=O)N(CC(=O)NCc2ccc(OC)cc2)C1=O (configuration not stated)
i	-1.12	CCNC(=O)O/N=C(\C)c1sc(-c2ccc(Cl)cc2)nc1C
i	0.61	CCC(C)[C@H](NC(=O)OC(C)(C)C)C(=O)N/N=C/c1ccc2cc(OC)ccc2n1 (some centres not stated)
i	-4.14	CC(=O)N1c2ccc(S(=O)(=O)N3CCCC(C(=O)Nc4ccc(C)cc4C)C3)cc2CC1C (configuration not stated)
i	-2.32	O=C(/C=C/c1ccc(Cl)c([N+](=O)[O-])c1)c1ccc(O)cc1
i	1.29	Cc1ccccc1N1CCN(C2CCCN(C(=O)c3ccnn3C)C2)CC1 (configuration not stated)
i	0.36	Cc1cc(C(=O)OCC(=O)N2CC(C)CC(C)C2)c(C)o1 (configuration not stated)
i	-0.24	Cc1cccc(NC(=O)CN2C(=O)CNC2=O)c1
i	-0.5	CCOC(=O)c1c(NC(=O)C2CC=CCC2C(=O)O)sc(C)c1CC (configuration not stated)
i	-1.43	CCCNC(=O)c1ccc(N2CCC3(CC2)CC(c2ccccc2)=NO3)c(NC(=O)c2cccc(C)c2)c1
i	0.78	COc1ccc(Cc2[nH]n3c(=O)c(Cl)c(C)nc3c2-c2ccccc2)cc1
i	-1.31	COc1ccc(/C=N/n2c(SC)nnc(C(C)(C)C)c2=O)cc1
i	0.07	Cc1ccc(CN2CCSc3ccc(C(=O)NCCCN4CCOCC4)cc32)cc1
i	-2.08	CN(C)CCCN(C(=O)c1ccc(S(=O)(=O)N2CCCCCC2)cc1)c1nc2c(F)cccc2s1
i	-0.2	COC(=O)C1NN=C(C(=O)c2ccc(Br)cc2)C1c1cccc(Br)c1 (configuration not stated)
i	3.63	O=C(CSc1nnc(SCc2ccccc2Cl)s1)N/N=C/c1c[nH]c2ccccc12
i	-0.02	O=S(=O)(Nc1cccc(-c2nnco2)c1)c1ccc(F)cc1F
i	-0.25	COCCCNC(=O)/C(C#N)=c1\s/c(=C\c2ccccc2OC(F)F)c(=O)n1CCCOC
i	0.11	O=C(Cn1nnc(-c2ccc(Cl)cc2)n1)NC1CCN(Cc2ccccc2)CC1
i	-0.42	O=C(CN1C(=O)c2ccccc2C1=O)NCc1ccccn1
i	0.41	O=C(Nc1ccc(F)cc1)c1cc(S(=O)(=O)N2CCCCC2)cs1
i	-0.57	CCC(C)[C@H](NC(=O)[C@H](Cc1ccccc1)n1c(=O)[nH]c2ccccc2c1=O)C(=O)NCC1CCC(C(=O)O)CC1 (some centres not stated)
i	0.09	CCc1ccc(NC(=O)COc2cccc(-n3cnnn3)c2)cc1
i	-0.08	Cc1cccc(N2CCN(C(=O)c3ccnn3C)CC2)c1C
i	-0.05	CC1CCN(C(=O)C(=O)c2cn(CC(=O)N3CCCCCC3)c3ccccc23)CC1
i	0.71	O=c1[nH]c(-c2cccnc2)nc2ccccc12
i	2.57	CCOC(=O)C(C#N)(Cc1cc(OC)cc(OC)c1)Cc1cc(OC)cc(OC)c1
i	1.66	NCC(=O)Nc1ccc(Cl)cc1C(=O)c1ccc[nH]1
i	-0.22	CSc1cccc(NC(=O)N2CCCC(CNS(=O)(=O)Cc3ccccc3)C2)c1 (configuration not stated)
i	0.02	COc1cccc(NC2=C(C#N)C(=O)NC(c3cccc(OC)c3O)S2)c1 (configuration not stated)
i	1.33	CN1C(=S)SC(N(O)C(=O)Nc2ccc(Cl)c(Cl)c2)C1(C)C (configuration not stated)
i	1.94	Cc1nn(Cc2ccccc2)c2sc(C(=O)N3CCN(Cc4ccc5c(c4)OCO5)CC3)cc12
i	-2.51	CC(C)COc1ccc(C(=O)NC(Cc2c[nH]c3ccccc23)C(=O)NN)cc1 (configuration not stated)
i	0.89	Cc1cccc(C)c1OCCCN1CCOCC1
i	-0.72	CCCSc1cc(=O)n(-c2ccccc2)nc1C(=O)OCC
i	-0.27	O=C(CCc1nnc2ccc(NCc3ccco3)nn12)Nc1cccc(F)c1
i	-0.55	COC(=O)c1sccc1NC(=O)c1sccc1C

Later entries.
KCNQ2 block	KCNQ2 block baseline	molecule
i	0.54	CCOC(=O)c1c(C)[nH]c(NC(=O)N2CCOCC2)c1C
i	-2.36	COc1ccc(/C=C2\SC(N)=NC2=O)cc1Br
i	-0.55	COC(=O)Cc1c(C)c2ccc(OC(=O)c3ccco3)cc2oc1=O
i	3.9	O=C(CCCOc1ccc(Cl)cc1Cl)Nc1ccncc1
i	-0.17	Cc1ccc(C(=O)Nc2sc3c(c2C#N)CCCCC3)cc1C
i	-0.88	O=C(Nc1ccc(O)cc1)c1cc2n(n1)C(C(F)(F)F)CC(c1ccco1)N2 (configuration not stated)
i	-0.72	CCN1CCN(S(=O)(=O)c2ccc(Oc3ccccc3OC)cc2)CC1
i	-0.35	COc1cccc(NC(=O)NCc2ccccc2Cl)c1
i	2.87	O=C(NCCc1ccccc1)/C(=C\c1cccc([N+](=O)[O-])c1)NC(=O)c1ccco1
i	1.55	Cc1ccccc1NC(=O)c1c(Cl)nc(C)c(Cl)c1C
i	0.11	Cc1ccc2nc(NCCc3ccc(Cl)cc3)c3nncn3c2c1
i	0.02	NS(=O)(=O)c1ccc(CCNC(=O)CCCn2c(SCC(=O)N3CCCC3)nc3ccsc3c2=O)cc1
i	0.25	Cc1ccc(S(=O)(=O)N/N=C(\c2ccccc2)c2cccnc2)cc1
i	0.04	O=C(Nc1ccccc1)C1=C[C@H](C2CCCCC2)C[C@H](OCc2ccc(CO)cc2)O1
i	1.42	c1ccc(SCc2nc3ccccc3[nH]2)nc1
i	-0.94	Cc1cccc2[nH]c(CCNC(=O)C3CCC(=O)N(CCc4cccc(F)c4)C3)nc12 (configuration not stated)
i	1.22	O=C(CN1NS(=O)(=O)c2ccccc2C1=O)Nc1ccccc1OC(F)F
i	1.57	COc1ccccc1NC(=O)CC1S/C(=N/N=C2\CCCc3ccccc32)NC1=O (configuration not stated)
i	1.92	CC1CCN(S(=O)(=O)c2ccc3c(ccn3CCC(=O)NC(C)C)c2)CC1
i	2.33	CCOc1ccc(-c2c(=O)n(OCc3ccccc3Br)c3ccccc3[n+]2[O-])c(OCC)c1
i	-1.11	CC1Cn2c(nc3c2c(=O)[nH]c(=O)n3C)O1 (configuration not stated)
i	0.11	O=C(CN1N=C(c2ccccc2)CCC1=O)NCc1ccco1
i	-1.77	CCOc1cc(CNc2nn[nH]n2)ccc1OCC(=O)NC(C)(C)C
i	-0.19	Clc1cc(Cl)c2nc(N3CCCC3)sc2c1
i	-0.07	COc1ccc(-c2[nH]n(-c3ccc([N+](=O)[O-])cc3)c(=O)c2C=NCc2ccncc2)cc1
i	1.3	O=S(=O)(NCCCCNS(=O)(=O)c1ccc(F)cc1)c1ccc(F)cc1
i	5.18	Cc1ccccc1C(=O)NNc1ncnc2c1cnn2C
i	-0.68	CCOC(=O)c1ccc(N2Cc3ccccc3C2=NC(=O)c2cccc([N+](=O)[O-])c2)cc1
i	-0.14	CC(=O)OCC1(C)CN(c2ccccc2)N(C(=O)c2ccc(F)cc2)C1=O (configuration not stated)
i	-0.02	CC1CCN(S(=O)(=O)c2nnc(NC(=O)COc3ccccc3)s2)CC1
i	-1.6	O=C(NNS(=O)(=O)c1ccc(F)cc1)c1sccc1-n1cccc1
i	1.46	CC1CCN(c2c(NCC3CCC(C(=O)NCCc4ccc(Cl)cc4)CC3)c(=O)c2=O)CC1 (configuration not stated)
i	1.98	COc1ccc(S(=O)(=O)N2c3ccccc3OCC2C)cc1 (configuration not stated)
i	2.67	Cc1cc(/C=C2\NC(=S)N(C)C2=O)ccc1N1CCCC1
i	-0.06	COc1ccc(-c2nc(CS(=O)(=O)CC(=O)NCc3ccc(F)cc3)c(C)o2)cc1
i	0.3	Cc1ccc(C(=O)NCc2cccnc2)o1
i	1.11	COc1ccc(Nc2nnc(SCC(=O)NC(=O)Nc3ccc4c(c3)OCCO4)s2)cc1
i	1.19	Cc1cccc(N(C(=O)c2nsc(Cl)c2Cl)C(C(=O)NC2CCCC2)c2ccc(O)cc2)c1 (configuration not stated)
i	-2.15	COc1cc(-c2nc(S(=O)(=O)c3ccc(Cl)cc3)c(N3CCOCC3)o2)cc(OC)c1OC
i	1.66	CN(C)CCCNCCNC(=O)/C=N\O

At a glance, some entries already given.
KCNQ2 block	KCNQ2 block baseline	molecule
i	-1.11	CC1Cn2c(nc3c2c(=O)[nH]c(=O)n3C)O1 (configuration not stated)
i	0.11	O=C(CN1N=C(c2ccccc2)CCC1=O)NCc1ccco1
i	-1.77	CCOc1cc(CNc2nn[nH]n2)ccc1OCC(=O)NC(C)(C)C
i	-0.19	Clc1cc(Cl)c2nc(N3CCCC3)sc2c1
i	-0.07	COc1ccc(-c2[nH]n(-c3ccc([N+](=O)[O-])cc3)c(=O)c2C=NCc2ccncc2)cc1
i	1.3	O=S(=O)(NCCCCNS(=O)(=O)c1ccc(F)cc1)c1ccc(F)cc1
i	5.18	Cc1ccccc1C(=O)NNc1ncnc2c1cnn2C
i	-0.68	CCOC(=O)c1ccc(N2Cc3ccccc3C2=NC(=O)c2cccc([N+](=O)[O-])c2)cc1
i	-0.14	CC(=O)OCC1(C)CN(c2ccccc2)N(C(=O)c2ccc(F)cc2)C1=O (configuration not stated)
i	-0.02	CC1CCN(S(=O)(=O)c2nnc(NC(=O)COc3ccccc3)s2)CC1
i	-1.6	O=C(NNS(=O)(=O)c1ccc(F)cc1)c1sccc1-n1cccc1
i	1.46	CC1CCN(c2c(NCC3CCC(C(=O)NCCc4ccc(Cl)cc4)CC3)c(=O)c2=O)CC1 (configuration not stated)
i	1.98	COc1ccc(S(=O)(=O)N2c3ccccc3OCC2C)cc1 (configuration not stated)
i	2.67	Cc1cc(/C=C2\NC(=S)N(C)C2=O)ccc1N1CCCC1

Carrying on:
KCNQ2 block	KCNQ2 block baseline	molecule
i	-1.51	O=C(COc1cccnc1[N+](=O)[O-])NCCc1ccc(Cl)cc1
i	-3.13	CCN(C(=O)CCc1nc(-c2ccc(OC)cc2)no1)c1cc(OC)ccc1OC
i	0.38	Cc1c(C(O)CN2CCN(Cc3ccc4c(c3)OCO4)CC2)c2ccccc2n1C (configuration not stated)
i	-0.11	COc1ccc(C(=O)N2CCCC(CCC(=O)NCc3ccccc3F)C2)c(OC)n1 (configuration not stated)
i	0.04	CC(CC(=O)C1C(C)C=CCC1(C)C)NNC(N)=O (configuration not stated)
i	1.41	COc1ccccc1N1C(=O)CC(Sc2ncccc2C(=O)O)C1=O (configuration not stated)
i	1.69	CC(C)OC(=O)CSc1nc(N)c(C#N)c(-c2cccs2)c1C#N
i	-0.1	O=C(CSc1nnnn1-c1ccccc1)Nc1ccc(N2CCOCC2)cc1
-5.75*	0.07*	O=C(c1ccc(Cl)c(Cl)c1)N1CCC(=O)N(C(COCc2ccccc2)Cc2ccccc2)CC1 (configuration not stated)
i	-1.95	CCc1nc2ccccc2c(C(=O)OC2CCCCC2=O)c1C (configuration not stated)
i	0.03	CCOc1cccc(/C=C/c2ccc3cccc(O)c3n2)c1OC
i	0.74	O=[N+]([O-])c1cc2oc3c(c2c(C=NCc2ccccc2)c1O)CCCC3
i	2.5	CC1CCN(C(=O)CSc2nc(N)c(NC(=O)c3ccccc3)c(=O)[nH]2)CC1
i	-0.39	CCN(CC)CCn1c2c(c(SCC(=O)Nc3nccs3)nc1=O)CCCC2
i	-0.42	CC(=O)Nc1ccc(C(F)(F)F)cc1Cl
i	0.02	Cc1cc(C)c(C(=O)OCC(=O)NCc2cccs2)c(C)c1
i	0.11&-0.95	CC1CCC(C(C)C)C(OC(=O)Cn2c(-c3ccccc3)[n+](C)c3ccccc32)C1 (configuration not stated)
i	-1.5	Cc1ccc2c(CSc3nnc(N)s3)cc(=O)oc2c1
